# From PubChem
# Rango dissoc inh – prevents RanGTP from dissociating the Rango-importin beta complex; O95149+P62826; Biochemical FRET Rango-importin beta, RanGTP-induced dissociation; Potency, µM (highest dose often 46.1 µM), without a hit: top-dose activity change, negative = inhibition; hit rate 0.071% among 340,000; active means falling FRET ratio curve, often poorly fitted, with flat reads before Ran was added; inconclusive means other falling curves, or compound fluorescence or quenching; inactive means flat or rising ratio curve;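 further: potency means the concentration at half of the fitted maximal effect; % of control where 0% means no effect; nearly all actives have a fitted effect of over 45% in size; -100% = wells without RanGTP and RCC1; the record marks most hits as doubtful in a second field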
#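 Rango FRET biosensor (snurportin-1 IBB flanked by N-terminal EYFP and C-terminal CFP10) at 0.1 uM, with 0.25 uM importin beta in PBS, 1mM DTT, 0.02% Tween-20, 0.1% BSA. 0.6 uM Ran, 2mM GTP and 0.2 uM RCC1 were then added for 45 min at room temperature. Inhibition read as loss of FRET rise.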
# Rango complex inh – Rango-importin beta binding inhibition | hit rate 0.031% among 340,000 | Rango CFP/YFP FRET sensor + importin beta, 45 min | AID 540263 | Potency, µM (highest dose often 92.2 µM), without a hit: at the top dose inhibition of complex formation | Q14974; active = rising FRET ratio curve, often small or poorly fitted; inconclusive = mostly compound fluorescence or quenching in the first reads; inactive = flat curves in all reads;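 further: potency means the concentration at half of the fitted maximal effect; 0% = DMSO wells and 100% = buffer wells lacking importin beta; nearly all actives have a fitted effect of over 15% in size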
#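 FRET biosensor Rango (snurportin 1 IBB between N-terminal EYFP and C-terminal Cerulean), 50 nM in PBS/1 mM DTT/0.02% Tween-20/0.1% BSA, preincubated 5 min RT with compound; 0.125 microM importin beta added, 45 min RT, CFP/YFP FRET ratio read.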
# miR-21 FLuc – miR-21 reporter, rising signal. AID 2288. Potency, µM (top dose mostly 38.3 µM), for the others: at the highest dose reporter change, positive = more light. 340,000 tested, under 10 active. HeLa miR-21 FLuc reporter, luciferase, 48 h; active = well fitted rising curve with a large enough effect; inconclusive = small, poorly fitted or top-dose-only effect; inactive = no such curve, though single readings can be large or run the other way;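 further: % of control where 0% means no effect; miR-21 action dims this reporter so a rising signal means less miR-21 action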
#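 Compounds were titrated across several concentrations (up to approximately 40 uM) and incubated 48 hours with HeLa miR-21-FLuc reporter cells (miR-21 target sequence downstream of FLuc, endogenous miR-21). Readout was firefly luciferase luminescence after lytic detection reagent.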
# GLA inh pH 4.5 – blocks human alpha-galactosidase A at pH 4.5; purified enzyme, 4-MU-alpha-Gal fluorescence, pH 4.5; 230,000 tested, under 10 active; activity change, negative = inhibition, % at 105 µM; P06280; AID 1467; inconclusive = small, poorly fitted or top-dose-only inhibition, or a rising curve; inactive = flat fitted curve, though single readings scatter; no compound was filed as active;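 further: 0% = full activity with enzyme and -100% = basal without enzyme; dose as in the result columns while the protocol names 77 µM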
# Target sequence (P06280 whole entry, looked up): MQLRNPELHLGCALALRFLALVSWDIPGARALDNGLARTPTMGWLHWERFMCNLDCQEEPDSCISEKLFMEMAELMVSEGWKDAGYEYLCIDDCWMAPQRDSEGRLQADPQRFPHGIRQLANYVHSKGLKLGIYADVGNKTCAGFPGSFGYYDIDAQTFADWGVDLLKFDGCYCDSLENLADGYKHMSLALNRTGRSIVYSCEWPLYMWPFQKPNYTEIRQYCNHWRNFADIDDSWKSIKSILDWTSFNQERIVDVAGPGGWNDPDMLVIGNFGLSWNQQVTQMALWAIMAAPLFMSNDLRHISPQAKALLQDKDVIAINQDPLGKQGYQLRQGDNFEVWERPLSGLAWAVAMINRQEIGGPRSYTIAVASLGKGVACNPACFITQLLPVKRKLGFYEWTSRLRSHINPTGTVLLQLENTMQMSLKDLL
# Active calls of the source: *; ? = inconclusive; . = not tested or not shown; & = joins results of further samples; [ ] = remark or other dose. Only part of the results is shown; rates above refer to the full screens.
SMILES,Rango dissoc inh,Rango complex inh,miR-21 FLuc,GLA inh pH 4.5
CN(C)CCCN(C(=O)c1ccc(S(=O)(=O)N2CCc3ccccc3C2)cc1)c1nc2c(F)cccc2s1,5%,-0.9%,-3%,.
CC(=O)NC[C@H]1CN(c2ccc(N3CCOCC3)c(F)c2)C(=O)O1,.,.,-19%,-1
Cc1ccc(NC(=O)C(C)OC(=O)Cn2[nH]c(=O)c3ccccc3c2=O)cc1 (centres undefined),-15%,-1.9%,.,.
Cc1[nH]c(=O)c(C#N)c(C)c1Br,-3%,0.5%,-9%,-2
CCCN1CCC(=O)N([C@H](CSc2ccc(C)cc2)c2ccccc2)CC1,2%,?,-28%,4
CCN(CC)c1ccc(N=C2C=CC(=O)C=C2NC(C)=O)cc1,6%,?,.,.
CC(=O)c1ccc(OCC(O)CN2CCc3ccccc3C2)cc1 (centres undefined),6%,-4.1%,-7%,.
C=CCn1c(SCC(=O)Nc2nnc(CC)s2)nnc1-c1cccnc1,20%,1.4%,-1%,10
CCn1cc(C(=O)OCC(=O)Nc2ccc(S(=O)(=O)N3CCCC3)cc2)c(=O)c2ccc(C)nc21,-4%,1.3%,-5%,5
COc1cc(C)c(S(=O)(=O)NCc2ccc3c(c2)OCO3)cc1C,12%,2.2%,-3%,-1
Cc1ccc(CSCCNC(=O)c2cccc([N+](=O)[O-])c2)cc1,-14%,5.2%,16%,-8
Nc1nc(SCc2ccc(Br)cc2)n[nH]1,15%,0.7%,-36%,.
Cc1[nH]c2ccccc2c1C(=O)COC(=O)C1CC(=O)N(Cc2ccccc2)C1 (centres undefined),4%,-0.2%,-1%,-17
Cc1cc(C(=O)OCC(=O)N2CC(=O)Nc3ccccc32)c(C)n1-c1ccccc1,-3%,0.2%,9%,1
COc1cccc(NC(=O)c2nnn(Cc3ccc(Br)cc3F)c2N)c1,8%,-1.8%,-32%,5
CC(C)CNc1oc(-c2ccco2)nc1C#N,1%,-3.3%,-24%,4
O=C(NCc1ccc(Cl)cc1)c1cccc(S(=O)(=O)N2CCCC2)c1,-9%,-0.6%,.,.
CCOC(=O)c1cc(=O)c2ccc(OCc3ccccc3)cc2o1,6%,1.1%,0%,.
O=C(CCC(=O)c1cccs1)OCC(=O)c1ccc(F)cc1,-13%,-2.3%,.,.
COc1cc(/C=C/C(=O)Nc2nc3ccc(S(=O)(=O)NC(C)C)cc3s2)cc(OC)c1OC,-4%,2.7%,-6%,1
O=C1c2ccccc2C(=O)N1CCCC(=O)N1CCCc2ccccc21,1%,3.2%,-10%,3
Cn1c(CSc2nnc(SCc3ccccc3)s2)nc2ccccc21,-5%,-5.3%,-15%,-15
COc1ccc(-c2nc3ccc(N4CCCC4)cc3c(=O)[nH]2)cc1OC,-27%,?,-7%,3
CCc1noc(C)c1C(=O)Nc1cc(Cl)ccc1N1CCCC1,12%,-0.2%,.,.
Cc1ccc2cn[nH]c2c1[N+](=O)[O-],6%,-0.7%,-4%,1
COCCNc1nc(-c2ccccc2)nc2c1oc1ccccc12,-5%,4.4%,9%,-1
CCCN(CCC)CCNC(=O)c1cc2c(C)nc3ccccc3c2o1,-16%,3.5%,18%,-4
COc1ccccc1C1C(C(C)=O)=C(C)N=c2s/c(=C\c3cc(OC)c(OC)c(OC)c3)c(=O)n21 (centres undefined),-13%,1.9%,-4%,-2
O=C(CCn1cccc1)Nc1ccc(OC(F)(F)F)cc1,5%,0.7%,-13%,2
COc1cccc(CNC(=O)CCC2CCCN(C(=O)c3cc(C)on3)C2)c1 (centres undefined),3%,0.2%,-3%,3
CCN1/C(=C/C(=O)c2ccco2)Sc2ccccc21,?,?,-14%,-9
O=C(O)Cc1sc(Nc2ccccc2)nc1-c1cccs1,?,?,-41%,13
CCN1CN(Cc2ccco2)CNC1=S,5%,0.2%,0%,-16
Cc1ccc(S[C@@H](CCN2CC[C@H](O)CCC2=O)c2ccccc2)cc1,9%,-3.1%,-4%,.
O=C(O)C1CC=C(Cl)CC1C(=O)NC1CCCCC1 (centres undefined),-18%,0.0%,-1%,.
CCS(=O)(=O)N1Cc2ccccc2CC1C(=O)N1CCN(c2cccc(C)c2C)CC1 (centres undefined),-7%,1.4%,-5%,-6
COc1cccc(C(=O)COC(=O)CCC(=O)NC2CCCCC2)c1,-18%,-4.6%,-2%,3
NC(=O)CSc1ccc(-c2ccc(F)cc2)nn1,-11%,-4.2%,-12%,2
O=C(CSc1ncnc2sccc12)NC1CCS(=O)(=O)C1 (centres undefined),0%,0.5%,.,.
CCCC1S/C(=N/N=C/c2ccco2)NC1=O (centres undefined),-1%,-1.2%,-9%,-2
CN(Cc1ccon1)C(=O)CC1C(=O)NCCN1CC1CCCCC1 (centres undefined),-19%,?,0%,-4
CCCCNC(=O)CSc1nc2cc3c(cc2c(=O)n1CCCN(CC)CC)OCO3,1%,-5.4%,-5%,-21
Cc1ccccc1OCC(=O)NNC(=O)Cc1ccc(S(=O)(=O)N2CCOCC2)s1,-13%,-0.5%,.,.
CC1O[C@@H](O[C@H](C)CC[C@@H](C)O[C@H]2OC(C)[C@@H](O)C[C@H]2O)C(O)C[C@H]1O (some centres undefined),16%,0.1%,.,.
COC(=O)C1=C(C(=O)OC)SC2(S1)C(C(=O)OC)=C(C(=O)OC)SC1=C2c2cccc(C)c2NC1(C)C,-8%,4.6%,-4%,-6
Cc1cccc(N=Nc2c(O)[nH]c3ccc(F)cc23)c1,?,?,-55%,-2[21.1 µM]
O=C(Nc1ccc2c(c1)OCO2)c1ccccc1SCC(=O)N1CCCC1,4%,0.5%,-2%,-8
Cc1nc2c(c(N3CCOCC3)n1)OCC(=O)N2,2%,-0.2%,-15%,4
CN(C(=O)c1nn(C)c2c1CSc1ccccc1-2)c1ccc(F)cc1,-1%,-1.2%,-10%,.
NNC(=O)CNC(=O)C12CC3CC(CC(C3)C1)C2,0%,-0.1%,-3%,5
O=C(CN1CCN(S(=O)(=O)c2cc(C(F)(F)F)ccc2Cl)CC1)N1CCc2ccccc2C1,0%,-2.2%,.,.
O=C(Nc1ccc(N2CCN(C(=O)c3ccco3)CC2)c(Cl)c1)c1cc2ccccc2o1,-7%,-0.6%,?,-8
CCN(CC(=O)Nc1ccc(NC(C)=O)cc1)C(=O)c1ccc2ccccc2c1,6%,3.8%,.,.
O=C(O)CCCN1C(=O)/C(=C\c2ccccc2OCc2ccccc2)SC1=S,-12%,6.9%,-13%,.
CC1Cc2c([nH]c(=O)n(-c3ccccc3)c2=O)O1 (centres undefined),-6%,-0.8%,.,.
C/C(=N/NC(=O)CSc1nc2ccccc2s1)c1ccncc1,12%,0.8%,5%,5
COc1ccc(Cl)cc1NC(=O)CN(C(=O)c1ccco1)C1CCCCC1,0%,1.7%,-3%,-3
N#CCc1ccc(NC(=O)Cn2c(=O)oc3ccccc32)cc1,-1%,2.1%,-1%,.
N#Cc1cc(-c2ccccc2)nnc1Sc1ccccc1,4%,-0.8%,-4%,5
Cc1ccc(-c2nn(CC(=O)NCc3cc(-c4nn(C)c(=O)c5ccccc45)ccc3C)c(=O)c3ccccc23)cc1,-18%,-0.1%,-7%,4
# Later entries.
SMILES,Rango dissoc inh,Rango complex inh,miR-21 FLuc,GLA inh pH 4.5
CN(C)/C=C/C(=O)c1cnc(-c2ccc(Cl)cc2)s1,-6%,8.5%,-44%,1
CCN(CCO)C(=O)c1ccc2oc(Cc3ccc(Cl)cc3)nc2c1,17%,0.8%,-7%,.
CC(=O)C1C(c2ccc(F)cc2)c2c(noc2C)CC1(C)O (centres undefined),1%,-0.4%,0%,1
O=C(C1CCCO1)N1CCN(S(=O)(=O)c2ccc(Br)cc2)CC1 (centres undefined),14%,0.7%,3%,.
Clc1nc2c(ccc3ccccc32)[nH]1,-11%,-0.2%,-43%,-12
CC(OC(=O)CC1Sc2ccccc2NC1=O)C(=O)N(C)Cc1ccccc1 (centres undefined),2%,4.2%,.,.
CC(CNC(=O)CCS(=O)(=O)c1cc2c(cc1Cl)NC(=O)CO2)c1ccccc1 (centres undefined),4%,3.2%,-2%&-1%,.
COC(=O)CN1C(=O)C2(C(C#N)=C(N)Oc3cc(C)oc(=O)c32)c2ccccc21 (centres undefined),-8%,-2.9%,2%,1
Cc1ccccc1CSCC(=O)NNC(=S)NCC1CCCO1 (centres undefined),6%,3.9%,5%,.
O=C(NCc1ccccc1F)C(c1ccccc1)c1ccccc1,15%,-1.5%,-2%,.
O=S1(=O)CCOC[C@H](Cc2ccccc2)N1Cc1ccccc1Br,-14%,1.7%,.,.
COCCCNC(=O)c1ccccc1Oc1ccccc1,-4%,-2.7%,-4%,2
CN(C)c1ccc(C(C(=O)NCC2CCCO2)N(Cc2ccco2)C(=O)c2snc(C(N)=O)c2N)cc1 (centres undefined),12%,-1.2%,12%,.
CCc1ccc(C(=O)C(C)OC(=O)CNS(=O)(=O)c2ccc(C)cc2)cc1 (centres undefined),10%,0.4%,.,.
COc1cc(OC)c(OC)cc1CN1CCN(Cc2ccc(C(F)(F)F)cc2)CC1,0%,-0.1%,14%,.
COc1ccc(-c2cn3ccc(C)cc3n2)cc1,7%,-5.4%,30%,-1
CCc1nnc(NS(=O)(=O)c2ccc(NC(=O)COc3ccc(Cl)c(C)c3)cc2)s1,5%,-1.0%,1%,-7
CC(c1ccco1)N(C(=O)Nc1ccccc1)C1CCCCC1 (centres undefined),-9%,0.0%,-15%,11
Cc1cc(NC(=O)CN2CCN(Cc3ccccc3)CC2)nc2c1c(=O)oc1ccccc12,.,.,2%,0
CCC(=O)Nc1ccc(C(=O)NNC(=O)COc2cccc(C)c2)cc1,-15%,-2.1%,-1%,1

# A draw from above in order of count of non-hydrogen atoms, falling.
SMILES,Rango dissoc inh,Rango complex inh,miR-21 FLuc,GLA inh pH 4.5
CCN(CC(=O)Nc1ccc(NC(C)=O)cc1)C(=O)c1ccc2ccccc2c1,6%,3.8%,.,.
C=CCn1c(SCC(=O)Nc2nnc(CC)s2)nnc1-c1cccnc1,20%,1.4%,-1%,10
COCCCNC(=O)c1ccccc1Oc1ccccc1,-4%,-2.7%,-4%,2
NC(=O)CSc1ccc(-c2ccc(F)cc2)nn1,-11%,-4.2%,-12%,2
Nc1nc(SCc2ccc(Br)cc2)n[nH]1,15%,0.7%,-36%,.

# (more compounds)
SMILES,Rango dissoc inh,Rango complex inh,miR-21 FLuc,GLA inh pH 4.5
Cn1ncc(Cl)c1C(=O)N1CCOCC1,3%,-1.0%,1%,3
COCCOc1cc(NC(=O)c2cccc(OC)c2)c(Cl)cc1Cl,26%,-0.4%,-3%,2
COc1cc2c(cc1OC)C(=O)CCC2,1%,3.8%,.,.
CC(=O)N1C(=O)/C(=C2\SC(=S)N(NS(=O)(=O)c3ccc(C)cc3)C2=O)c2ccccc21,-13%,9.0%,3%,-2
COc1ccc(Cl)cc1NC(=O)CNC(c1ccccc1)c1ccccc1,13%,2.8%,4%,.
O=C(NC1(C(F)(F)F)N=C2SCCN2C1=O)c1ccco1 (centres undefined),-18%,-0.7%,-4%,-6
Cc1cccc(NC(=O)CCN2C(=O)c3ccccc3C2=O)n1,-4%,-0.3%,-2%,8
CCOc1ccc(NC(=S)N2CCn3c(nc4ccccc43)C2)cc1,.,.,-9%,-9
CC(C)CNC(=S)NC1CC2CCC(C1)N2Cc1ccccc1 (centres undefined),1%,2.6%,-7%,0
CCOC(=O)c1cc(C(=O)OCC)cc(-n2cc(O)c(C(=O)OCC)n2)c1,13%,?,0%,3
COc1ccc(OCC#CCNC(C)(C)C)cc1,2%,4.0%,0%,?
COc1cc(-c2ccccc2)nc(N)n1,1%,-3.8%,-59%,-2
CCOc1ccc2nc(NC(=O)CN3CCOCC3)sc2c1,17%,-1.7%,-18%,5
CCCCN(CCCNC(=O)C1CCN(S(=O)(=O)N2CCOCC2)CC1)c1ccccc1,3%,1.5%,13%,-4
COc1ccc2cc(C(=O)/C=C/c3cc(OC)c(OC)c(OC)c3)ccc2c1,0%,?,?,.
